# ALR inh: inhibitors of human ALR sulfhydryl oxidase, primary screen, biochemical, H2O2 detection, HRP-luminol luminescence, single point; 3.8% of 290,000 active; inhibition, % (no concentration beside the values); AID 485317, 2010; FAD-linked sulfhydryl oxidase ALR (Homo sapiens), P55789; purified ALR, DTT oxidation;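 active = mean and each replicate at 75% or more; inconclusive = only one of the two met; inactive = neither met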;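 note: stock transfer was 7.5 nL into about 7.5 µL; 0% = neutral wells and 100% = wells with inactivated enzyme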
# Target sequence (P55789 whole entry, looked up): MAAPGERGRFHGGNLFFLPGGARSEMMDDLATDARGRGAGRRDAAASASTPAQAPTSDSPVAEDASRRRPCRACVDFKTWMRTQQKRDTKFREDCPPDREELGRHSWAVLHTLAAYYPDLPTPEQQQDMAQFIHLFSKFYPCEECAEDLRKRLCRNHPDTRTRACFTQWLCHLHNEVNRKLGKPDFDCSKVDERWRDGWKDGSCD
# RanGTP-Imp inh: inhibitors of RanGTP-importin-beta interaction, primary screen, biochemical, FRET, CFP-Ran, YFP-importin-beta, homogeneous; AID 2216, 2009; 1.1% of 300,000 active; Ran GTPase (GTP-bound) - importin-beta complex; cell-free CFP-Ran/YFP-importin-beta FRET ratio; inhibition, % (no concentration beside the values);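 active = most replicates above 15%; inconclusive = exactly half above 15%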;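 note: 0% = DMSO wells and 100% = Ran loaded with GDP instead of GTP; wells of about 40 µL received 100 nL stock; the first replicate is given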
# rRNA inh HTS: reduced GFP signal of wild-type E. coli, primary screen, bacterial rRNA inhibitor project, GFP/RFP fluorescence, OD600, single point; E. coli WT GFP vs humanized-ribosome RFP mutants, 24 h; stronger effect = lower value; DMSO median 0, no signal -100; 1.6% of 350,000 active; GFP signal change (wild-type ribosome), % (concentration not given with the values); AID 720706, 2013;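 active = significant combined selectivity score with lowered wild-type GFP, culture density cut under 30%, mutant RFP and density less affected; inactive = any of these conditions unmet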; note: one replicate is shown; some compounds called inactive have numbers as strong as hits
# FGF22 binding: binders of human FGF22 protein, primary screen, FGF22 synaptogenesis inhibitor project, biophysical, thermal shift, single point; Fibroblast growth factor 22 (Homo sapiens), Q9HCT0; recombinant FGF22 thermal shift, SYPRO orange fluorescence; percent of sucrose octasulfate shift, DMSO zero; calls only at 9.99 µM; 1.5% of 340,000 active; AID 651658, 2012;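 active = melting point raised past a set limit in the mean and every replicate; inconclusive = no clear call; three in four hits are not shown here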
# Target sequence (Q9HCT0 whole entry, looked up): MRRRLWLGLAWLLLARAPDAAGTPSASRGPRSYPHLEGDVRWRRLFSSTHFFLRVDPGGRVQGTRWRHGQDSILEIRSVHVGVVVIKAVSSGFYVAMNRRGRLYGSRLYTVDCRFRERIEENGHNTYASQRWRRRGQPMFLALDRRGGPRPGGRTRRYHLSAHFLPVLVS
# Calb FLC: C. albicans growth inhibition with fluconazole, primary screen, CaCi-2 strain, Alamar Blue fluorescence | C. albicans CaCi-2 (fluconazole-resistant clinical isolate) + fluconazole, 48 h | 0.57% of 300,000 active | AID 1979, 2009 | growth inhibition, % (concentration not given with the values);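 active = most replicates above 75%; inconclusive = exactly half above 75%; inactive = most below 75%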;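 note: all wells also contain fluconazole at 8 µg/ml as a sub-toxic cotreatment; 0% = median of DMSO wells and 100% = median of geldanamycin control wells; wells of about 8 µL received 7.5 nL stock; the first replicate is given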
# T cruzi repl: inhibitors of intracellular T. cruzi growth, primary screen, luminescence, NIH3T3 host cells; 1.4% of 300,000 active; inhibition, % (no concentration beside the values); T. cruzi beta-gal in NIH3T3, 90 h;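 active = mean inhibition across valid replicates above about 55%, limit read from the data; inconclusive = mean below that limit but half or more replicates reach it; inactive = mean below it, under half of replicates reach it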;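 note: signal also drops with host cell toxicity which is not excluded here; 0% = plate median of DMSO wells and 100% = zero luminescence signal; higher percent means less beta-gal luminescence so fewer parasites; stock transfer was 50 nL into about 50 µL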
# MLL AF4-AF9 inh: inhibitors of AF4 peptide binding to AF9, primary screen, biochemical, AlphaScreen, biotin-AF4 peptide, FLAG-AF9, single point | 0.47% of 350,000 active | inhibition, % at 10 µM | AID 651704, 2012 | Protein AF-9 (Homo sapiens), P42568;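 active = every replicate reaching a set inhibition limit, whatever the replicate mean, cut at about 25% in these data; inconclusive = mean inhibition reaches that limit but some replicates miss it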;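 note: 0% = plate neutral control median and 100% = total signal loss; the record names both 10 and 1 µM as test concentration; the first replicate is given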
# Target sequence (P42568 whole entry, looked up): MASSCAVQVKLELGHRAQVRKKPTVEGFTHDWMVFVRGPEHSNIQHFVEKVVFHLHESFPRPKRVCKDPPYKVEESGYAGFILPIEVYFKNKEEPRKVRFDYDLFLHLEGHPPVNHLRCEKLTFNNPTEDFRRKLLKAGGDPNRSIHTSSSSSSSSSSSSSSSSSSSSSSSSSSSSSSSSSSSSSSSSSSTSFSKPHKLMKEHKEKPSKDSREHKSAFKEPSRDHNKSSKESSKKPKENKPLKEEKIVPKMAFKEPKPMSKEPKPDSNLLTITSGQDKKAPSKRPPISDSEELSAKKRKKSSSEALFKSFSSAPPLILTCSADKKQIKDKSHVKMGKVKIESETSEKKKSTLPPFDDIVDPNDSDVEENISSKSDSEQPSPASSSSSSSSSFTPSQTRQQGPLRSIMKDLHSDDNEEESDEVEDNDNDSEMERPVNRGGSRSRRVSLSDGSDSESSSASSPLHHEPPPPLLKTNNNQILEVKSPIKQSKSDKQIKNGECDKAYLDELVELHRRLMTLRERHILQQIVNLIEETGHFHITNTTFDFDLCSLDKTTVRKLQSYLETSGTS
# Beta cell apopt: inhibitors of cytokine-induced beta cell apoptosis, primary screen, luminescence. INS-1E cytokine-induced death, ATP luminescence, 48 h; percent of positive-control rescue, neutral wells zero. protection from apoptosis, % (concentration not given with the values). 0.8% of 300,000 active;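 active = all replicates at 75% or more, or half of them and the mean; inconclusive = half reach 75% but not the mean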;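 note: 0% = cytokine-treated negative control wells and 100% = positive control rescue; higher means more ATP so stronger rescue from cytokine killing; wells of about 40 µL received 100 nL stock; the first replicate is given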
# rRNA inh HTS OD600: also measured in rRNA inh HTS; calls as there; OD600 change, %; measured here: OD600 growth;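 optical density of the mix in the first replicate; 0 = DMSO median and -100 = no signal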
# rRNA inh HTS RFP: recorded beside rRNA inh HTS, whose call it bears; RFP signal change, %; measured here: RFP humanized mutant strains;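 first replicate; 0 = DMSO median and -100 = no signal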
# Active calls of the source: *; i = inactive; u = inconclusive; x = no result given; & = joins results of further samples. A portion of the library, so the mix of outcomes need not match the whole.
SMILES,ALR inh,RanGTP-Imp inh,rRNA inh HTS,rRNA inh HTS OD600,rRNA inh HTS RFP,FGF22 binding,Calb FLC,T cruzi repl,MLL AF4-AF9 inh,Beta cell apopt
CCOc1cccc(C(=O)Nc2cccc(-c3nc4ncccc4o3)c2C)c1,23,-4.2,x,x,x,x,51,1,x,3
CC(C(=O)NC1=NCCS1)N1C(=O)C2CC=CCC2C1=O (stereo not drawn),-3,-0.7,x,x,x,x,-3,-17,x,-1
Cc1cc(-c2n[nH]c(=S)n2/N=C/c2cccs2)n[nH]1,-1,-1.7,x,x,x,i,-15,-12,-6.8,2
CC(C)OC(=O)Nc1ccc2c(c1)N(C(=O)CCN(C)C)c1ccccc1CC2,-26,-2.0,0,3,2.1,i,-8,11,1.4,-2
Cc1nccn1CC(O)COc1ccccc1 (stereo not drawn),-11,3.0,x,x,x,x,u,-7,x,3
Cc1cccc(C(=O)Nc2sc3c(c2C(=O)O)CCC3)c1,57,0.6,-5,-13,11,x,7,-10,-4.4,1
Cc1cnc(NCCc2ccccc2)s1,11,u,9,3,0.2,i,-5,-11,1.9,9
COc1ccc(Cc2nc3ccc(C(=O)NC(C)c4cn(C)nc4C)cc3o2)cc1 (stereo not drawn),-3,-0.3,-4,-1,1.2,i,1,-8,3.6,x
Cc1cc(C)cc(NC(=O)COC(=O)CNC(=O)C2CCCCC2)c1,-2,x,5,-3,3.4,i,x,x,-5.2,-3
O=C(N/N=C/c1ccc2c(c1)OCO2)c1ccc(COCC(F)(F)C(F)F)cc1,-5,-1.5,x,x,x,x,4,13,x,3
COc1cc2c(cc1OC)-c1nnc(C)n1C1(CCCC1)C2,-11,0.7,-1,0,-2.7,i,3,-2,-1.8,x
Cc1ccc(N(C)S(=O)(=O)c2cccc(C(=O)OCC(=O)c3c(N)n(C)c(=O)n(C)c3=O)c2)cc1,0,x,-10,-10,3.2,i,x,x,0.3,2
O=C(NCCc1ccccc1)c1ccc2nccnc2c1,-3,1.4,-3,-7,-2.3,x,14,0,0.8,-7
COCCCNCC1C(Oc2ccc(Cl)cc2)C(=O)N1c1ccccc1C (stereo not drawn),-120,-2.2,x,x,x,x,-2,-8,x,4
Nc1ccc(S(=O)(=O)Nc2nccc(/C=C/c3ccc(Cl)cc3)n2)cc1,2,-1.9,5,16,-1.3,i,0,-5,-3.6,-7
CC(=O)N1CCN(c2ccc(NCc3ccc(C(C)C)cc3)cc2)CC1,x,2.6,x,x,x,x,-1,-15,x,0
COc1ccc(OC)c(NC(=O)c2c(NC(=O)CCC(=O)O)sc3c2CCCCC3)c1,59,u,x,x,x,x,-4,10,x,-5
O=C(CNC(=O)c1cccc(OC(F)F)c1)OCn1nnc2ccccc2c1=O,-1,u,5,-6,-1.7,i,6,-30,-0.9,-3
CC(=O)Nc1ccc(-n2c(=O)c3ccccc3c3ccccc3c2=O)cc1,2,-0.7,10,13,-0.2,i,-13,-11,-1.1,12
O=C(CCc1ccccc1)NNC(=O)COc1ccccc1Cl,-2,-0.1,4,0,1.6,i,0,-2,7.9,-3
O=C(CN1CCS(=O)(=O)CC1)N/N=C/c1cccc(C(F)(F)F)c1,0,u,13,7,3.7,i,-7,-1,-3.3,2
CC1CCN(c2c(NCC3CCC(C(=O)NCCCc4ccccc4)CC3)c(=O)c2=O)CC1 (stereo not drawn),0,-1.8,x,x,x,x,6,-8,x,2
C/C(=N\OC(=O)Nc1ccc(Cl)cc1)c1ncc(C(F)(F)F)cc1N1CCOCC1,-1,-3.5,x,x,x,x,2,16,x,2
O=C(COC(=O)c1cccs1)Nc1ccc(S(=O)(=O)N2CCOCC2)cc1,62,u,x,x,x,x,3,3,x,8
CCOc1ccc(NC(=O)CSc2nnc(C)n2CC2CCCO2)cc1 (stereo not drawn),-5,3.2,x,x,x,x,-4,4,x,-3
Cc1cc(C)cc(OCC(=O)O/N=C(\N)Cc2ccc([N+](=O)[O-])cc2)c1,98*,-7.4,-6,-4,1.6,i,-12,-4,4.8,-2
Cc1nn(CC(=O)NCc2ccccc2)c(=O)c2ccccc12,-7,1.8,x,x,x,x,-16,4,x,0
Cc1nn(-c2ccccc2)c(C)c1NC(=O)COc1ccc(F)cc1Cl,-1,1.6,-14,-9,-0.1,i,-30,5,10,-1
O=C(Cn1cnc2c(oc3nc4c(cc32)CCCC4)c1=O)Nc1cccc(Cl)c1,2,2.8,3,11,-1.1,i,0,2,0.8,1
C=CCN(Cc1ccc(OC)c(OC)c1)C(=O)N1CCOCC1,-1,-1.3,8,5,-0.8,i,3,-2,-0.3,1
CCCC[n+]1ccn(C2=C([O-])c3ccccc3C(=O)/C2=N\S(=O)(=O)c2ccc(Cl)cc2)c1,-28,-1.0,11,2,5.2,i,-1,10,x,114*
O=C(O)/C=C/C(=O)Nc1cccc(C(F)(F)F)c1,-3,0.0,6,0,1.7,i,-6,-1,-2.6,-3
CN1/C(=C/C2CC(=O)N(c3ccc([N+](=O)[O-])cc3)C2=O)C(C)(C)c2ccccc21 (stereo not drawn),4,2.9,-4,3,13,i,7,5,-25,-7
COCCNC(=O)CCCn1c(=O)c2cc(OC)c(OC)cc2n(CC(=O)c2ccccc2)c1=O,-6,0.7,-15,4,-1.8,i,-3,7,-1.3,-7
CCOc1ncccc1C(=O)OCC(=O)Nc1ccc(S(=O)(=O)N2CCOCC2)cc1,2,-2.7,-4,-17,-3.6,i,-8,4,-1.0,-6
Cc1ccccc1N(C)S(=O)(=O)c1nnc(NC(=O)c2ccco2)s1,23,-1.6,-7,-15,0.1,i,-10,-15,-0.3,-7
Cc1ccc(NC(=O)C2Cc3ccccc3C(=O)O2)cc1 (stereo not drawn),1,x,17,1,2.8,i,24,x,-0.1,1
COC(CNC(=O)c1cn(C)c2ccc(S(=O)(=O)N3CCOCC3)cc2c1=O)OC,2,-1.8,0,5,-1.1,i,6,-8,-1.2,1
C/C(N)=C(/C#N)C(=O)COC(=O)c1ccncc1,x,0.7,x,x,x,x,-7,-3,x,2
CC(C)(C)OC(=O)N1CCC(CC2CC(c3ccccc3)=NO2)(C(=O)O)CC1 (stereo not drawn),x,-0.6,3,5,-2.2,i,5,-16,-5.2,-9
O=C(O)c1ccc(N/N=C/c2ccc(F)c(F)c2)cc1,x,6.3,x,x,x,i,2,-7,3.9,1
COc1ccc(-n2c(COc3cccc(C)c3)nnc2SCC(=O)O)cc1,-18,0.0,3,-3,2.7,x,-1,-6,-3.8,-4
Cc1ccc(C(=O)NCCS(=O)(=O)N2CCN(c3ccccc3F)CC2)cc1[N+](=O)[O-],0,0.6,1,-1,3.0,i,-3,-4,-2.3,1
CC(NC(=O)CN(C)Cc1cccs1)c1ccccc1 (stereo not drawn),-11,0.1,3,2,-2.8,i,-12,-5,1.1,-2
C[C@H](CO)N1C[C@H](C)[C@@H](CN(C)Cc2ccc(C(=O)O)cc2)Oc2c(NS(=O)(=O)c3ccc(F)cc3)cccc2C1=O,0,x,7&1,13&9,-2.8&15,i,x,x,-1.7&1.2,-2
CN(Cc1ccccc1)c1nc2c(c(=O)n(C)c(=O)n2C)n1CCCc1ccccc1,-5,0.3,x,x,x,x,-1,29,x,3
O=C(NC1CCCCC1)C1CCCN1S(=O)(=O)c1ccc(Cl)cc1 (stereo not drawn),x,0.5,5,8,-3.4,i,-5,x,-1.0,-7
O=C(COC(=O)c1cccs1)Nc1cccc(S(=O)(=O)N2CCOCC2)c1,x,5.0,x,x,x,i,-4,-3,-10,-4

# 2 neighbouring records out of the list so far, quoted:
SMILES,ALR inh,RanGTP-Imp inh,rRNA inh HTS,rRNA inh HTS OD600,rRNA inh HTS RFP,FGF22 binding,Calb FLC,T cruzi repl,MLL AF4-AF9 inh,Beta cell apopt
O=C(NC1CCCCC1)C1CCCN1S(=O)(=O)c1ccc(Cl)cc1 (stereo not drawn),x,0.5,5,8,-3.4,i,-5,x,-1.0,-7
O=C(COC(=O)c1cccs1)Nc1cccc(S(=O)(=O)N2CCOCC2)c1,x,5.0,x,x,x,i,-4,-3,-10,-4

# Next part:
SMILES,ALR inh,RanGTP-Imp inh,rRNA inh HTS,rRNA inh HTS OD600,rRNA inh HTS RFP,FGF22 binding,Calb FLC,T cruzi repl,MLL AF4-AF9 inh,Beta cell apopt
COc1cccc(-c2c(C(=O)N/N=C(\C)COc3ccccc3)nnn2-c2nonc2N)c1,5,1.6,4,5,0.2,i,-6,6,-1.3,-1
COCC(=O)Nc1nnc(CCc2ccccc2)s1,-6,3.0,x,x,x,x,13,-20,x,-7
Cc1cc(Cl)ccc1OC(C)C(=O)Nc1ccc(S(=O)(=O)Nc2cnc3ccccc3n2)cc1 (stereo not drawn),27,-3.9,x,x,x,x,16,-5,x,0
COc1ccc(S(=O)(=O)NCC(=O)N(CC(=O)NCC2CCCO2)Cc2ccc(F)cc2)cc1 (stereo not drawn),26,1.4,5,7,1.1,i,-17,-12,-0.9,-21
CN1CCN(C(=S)Nc2cccc(C(F)(F)F)c2)CC1,-30,2.7,x,x,x,i,0,-33,-1.5,-11
CC1CCN(C(=O)C(Cc2ccccc2)n2cccc2)CC1 (stereo not drawn),x,-0.7,-15,-31,-2.1,i,-9,-3,4.6,-3
Cc1cc(C)c(C#N)c(OCc2ccc(Cl)nc2)n1,1,5.4,-15,-17,-1.4,i,-3,10,0.3,4

# 5 of the entries above in order of their number in MLL AF4-AF9 inh, descending:
Molecule	MLL AF4-AF9 inh
CC1CCN(C(=O)C(Cc2ccccc2)n2cccc2)CC1 (stereo not drawn)	4.6
Cc1cc(C)c(C#N)c(OCc2ccc(Cl)nc2)n1	0.3
COc1ccc(S(=O)(=O)NCC(=O)N(CC(=O)NCC2CCCO2)Cc2ccc(F)cc2)cc1 (stereo not drawn)	-0.9
COc1cccc(-c2c(C(=O)N/N=C(\C)COc3ccccc3)nnn2-c2nonc2N)c1	-1.3
CN1CCN(C(=S)Nc2cccc(C(F)(F)F)c2)CC1	-1.5

# Among those listed so far, these contain a cyano group:
SMILES,ALR inh,RanGTP-Imp inh,rRNA inh HTS,rRNA inh HTS OD600,rRNA inh HTS RFP,FGF22 binding,Calb FLC,T cruzi repl,MLL AF4-AF9 inh,Beta cell apopt
C/C(N)=C(/C#N)C(=O)COC(=O)c1ccncc1,x,0.7,x,x,x,x,-7,-3,x,2
Cc1cc(C)c(C#N)c(OCc2ccc(Cl)nc2)n1,1,5.4,-15,-17,-1.4,i,-3,10,0.3,4

# High-throughput results (PubChem BioAssay)
